# ID4 SMM: binds human ID4 protein on microarray; P47928; small molecule microarray, Flag-ID4 binding, fluorescence F/B; calls only; actives 1.2% (n = 31,000); AID 624137;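 active = spot signal over background at p below 0.07 in all four prints; compounds were printed on slides so no solution concentration is given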;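 also: a binder raises fluorescence above local background on the spot; about 2 pmol printed per array spot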
# Target sequence (P47928 whole entry, looked up): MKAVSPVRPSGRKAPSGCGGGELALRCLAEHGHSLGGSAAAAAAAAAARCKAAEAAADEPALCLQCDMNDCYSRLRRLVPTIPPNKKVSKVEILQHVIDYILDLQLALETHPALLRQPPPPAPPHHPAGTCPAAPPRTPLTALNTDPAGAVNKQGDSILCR
# STAT3 SMM: binders of human STAT3; P40763; Small molecule microarray, His-STAT3 binding, anti-His fluorescence; AID 624138; actives 0.2% (n = 17,000); calls only;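 active = compounds whose four printed spots each show fluorescence over background unusually high for their array block, chance value under 7%; compounds were printed on slides so no solution concentration is given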;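 also: about 2 pmol printed per array spot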
# Target sequence (P40763 whole entry, looked up): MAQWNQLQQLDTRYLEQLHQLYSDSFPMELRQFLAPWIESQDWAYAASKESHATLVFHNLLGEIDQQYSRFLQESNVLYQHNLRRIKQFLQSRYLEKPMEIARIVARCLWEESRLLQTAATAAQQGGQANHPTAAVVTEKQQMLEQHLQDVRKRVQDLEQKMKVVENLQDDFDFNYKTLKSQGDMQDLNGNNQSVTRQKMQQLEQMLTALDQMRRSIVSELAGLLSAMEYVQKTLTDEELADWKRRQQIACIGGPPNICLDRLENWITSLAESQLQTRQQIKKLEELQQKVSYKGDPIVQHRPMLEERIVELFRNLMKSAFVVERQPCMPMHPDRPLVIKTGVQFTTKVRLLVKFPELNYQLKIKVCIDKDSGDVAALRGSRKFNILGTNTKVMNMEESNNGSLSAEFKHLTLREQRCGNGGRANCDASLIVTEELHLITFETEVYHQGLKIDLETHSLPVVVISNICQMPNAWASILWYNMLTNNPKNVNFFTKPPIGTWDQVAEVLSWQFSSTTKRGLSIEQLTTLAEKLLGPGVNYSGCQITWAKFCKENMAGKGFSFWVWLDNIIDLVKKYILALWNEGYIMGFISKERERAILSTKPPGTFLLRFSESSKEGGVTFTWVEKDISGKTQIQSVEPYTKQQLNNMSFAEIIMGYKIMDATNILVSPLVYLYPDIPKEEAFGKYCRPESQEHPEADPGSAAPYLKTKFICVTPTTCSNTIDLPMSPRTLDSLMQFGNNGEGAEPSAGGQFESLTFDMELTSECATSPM
# Myc binder: binders of human c-Myc; P01106; small molecule microarray, His-c-Myc binding, anti-His fluorescence; calls only; actives 1.5% (n = 17,000); AID 624141;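 active = spot fluorescence over background with P-value below 7% in all four replicate spots, showing protein binding; compounds were printed on slides so no solution concentration is given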;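 also: score is binary with 100 for all four spots passing and 0 otherwise; about 2 pmol printed per array spot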
# mut p53 SMM: mutant p53 (human) binding; actives 0.4% (n = 17,000); calls only; small molecule microarray binding, anti-GST fluorescence;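 active = compounds whose four printed spots each glow above background more than chance allows, each with a p-value under 7%; compounds were printed on slides so no solution concentration is given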;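 also: about 2 pmol printed per array spot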
# Calls only; i = inactive; · = not tested or not shown; + = active, no number. Outcome played no part in choosing rows; any-hit rate near 3.7%.
SMILES,ID4 SMM,STAT3 SMM,Myc binder,mut p53 SMM
C[C@H]1CN([C@@H](C)CO)C(=O)Cc2cc(NC(=O)Cn3cnnn3)ccc2O[C@H]1CN(C)C(=O)Nc1cccc2ccccc12,i,i,i,i
COc1ccccc1OCC(=O)Nc1oc(-c2ccccc2)c(-c2ccccc2)c1C#N,+,i,i,i
C[C@H](CO)N1C[C@H](C)[C@@H](CN(C)Cc2ccc(Cl)c(Cl)c2)Oc2c(NC(=O)C3CC3)cccc2C1=O,·,i,i,i
C[C@@H]1CN([C@@H](C)CO)C(=O)c2cccc(NS(=O)(=O)c3ccc(Cl)cc3)c2O[C@H]1CN(C)S(=O)(=O)c1cccs1,i,i,i,i
CCO[C@H]1OC(C(=O)N2CCOCC2)=C[C@@H](C)[C@@H]1CCCO,i,i,i,i
COC(Cc1nc2ccccc2s1)C(=O)O (configuration not stated),i,i,+,i
C[C@@H]1CCCCO[C@H](CN(C)C(=O)Nc2ccc(C(F)(F)F)cc2)[C@@H](C)CN([C@H](C)CO)C(=O)c2cc(NS(C)(=O)=O)ccc2O1,i,i,i,i
CNC[C@@H]1Oc2c(NC(=O)Nc3ccc(C(F)(F)F)cc3)cccc2C(=O)N([C@H](C)CO)C[C@H]1C,i,i,i,i
Cc1cccnc1NC(=S)NC(=O)c1cncc(Br)c1,i,i,+,i
CC(C)NC(=O)N(C)C[C@@H]1Oc2ccc(NC(=O)CCN3CCOCC3)cc2C(=O)N([C@@H](C)CO)C[C@@H]1C,i,i,i,i
COc1cccc(CN(C)C[C@H]2OCc3cn(nn3)CCCC(=O)N([C@H](C)CO)C[C@@H]2C)c1,·,i,i,i
C[C@@H]1CCCCO[C@H](CN(C)C(=O)Nc2cccc3ccccc23)[C@@H](C)CN([C@@H](C)CO)C(=O)c2cc(N(C)C)ccc2O1,i,i,i,i
C[C@@H]1CCCCO[C@@H](CN(C)Cc2ccc(C(F)(F)F)cc2)[C@@H](C)CN([C@H](C)CO)C(=O)c2cc(NC(=O)NC3CCCCC3)ccc2O1,·,i,i,i
C[C@@H]1CN([C@@H](C)CO)C(=O)Cc2cc(NS(C)(=O)=O)ccc2O[C@@H]1CN(C)C(=O)NC1CCCCC1,i,i,i,i
C[C@H]1CN([C@@H](C)CO)C(=O)c2cc(NC(=O)C3CC3)ccc2O[C@@H]1CN(C)Cc1ccncc1,i,i,i,i
C[C@H](CO)N1C[C@H](C)[C@@H](CN(C)C)OCCCC[C@H](C)Oc2ccc(NC(=O)CCC(F)(F)F)cc2C1=O,i,i,i,i
O=C(O)C1=C[C@@H](C2CCCC2)C[C@@H](OCCCCO)O1,i,i,i,i
C[C@@H]1CN([C@@H](C)CO)C(=O)c2cc(NS(=O)(=O)c3ccccc3)ccc2O[C@@H](C)CCCCO[C@@H]1CN(C)Cc1ccncc1,i,i,i,i
COc1cc2c(c(OC)c1OC)c(=O)c1ccccc1n2C,·,i,i,i
COCCNc1ncnc2c1cnn2-c1cccc(C)c1,i,i,i,i
Cc1noc(C)c1NC(=O)N(C)C[C@H]1Oc2ccc(NS(C)(=O)=O)cc2CC(=O)N([C@H](C)CO)C[C@H]1C,i,i,i,i
CCn1c(SCC(=O)Nc2cccc(Cl)c2Cl)nnc1-c1ccc([N+](=O)[O-])cc1,i,i,i,i
C[C@@H]1CCCCO[C@@H](CN(C)C(=O)CCC(F)(F)F)[C@H](C)CN([C@@H](C)CO)C(=O)c2cc(NC(=O)Cc3ccccc3)ccc2O1,i,i,i,i
CC(C)[C@H](NC(=O)CNC(=O)OC(C)(C)C)C(=O)N[C@H](C=O)C(C)C,i,i,i,i
COc1ccc(CN(C)C[C@H]2Oc3ccc(NS(=O)(=O)c4ccc(Cl)cc4)cc3C(=O)N([C@@H](C)CO)C[C@H]2C)cc1,i,i,i,i
Cc1noc(C)c1NC(=O)N(C)C[C@H]1Oc2c(NC(=O)C3CCOCC3)cccc2C(=O)N([C@H](C)CO)C[C@@H]1C,i,i,i,i
CNC[C@@H]1Oc2ccc(NC(=O)Cc3ccccc3)cc2CC(=O)N([C@@H](C)CO)C[C@H]1C,i,i,i,i
O=C(CCn1[nH]c(=O)c2ccccc2c1=O)NCc1ccccc1,i,i,i,i
CC(C)(C)NC(=O)C(OC(=O)c1ccccc1)c1cccs1 (configuration not stated),i,i,i,i
C[C@H](CO)N1C[C@H](C)[C@@H](CN(C)C(=O)Nc2ccccc2)Oc2ccc(NC(=O)Cc3ccccc3)cc2CC1=O,i,i,i,i
C[C@H](CO)N1C[C@H](C)[C@@H](CN(C)C)Oc2ccc(N(C)C)cc2C1=O,i,i,i,i
Cc1ccc(C(=O)Nc2cccc(OC(=O)c3cc(S(=O)(=O)N4CCCCC4)ccc3Cl)c2)cc1,+,i,i,i
CNC[C@@H]1Oc2ccc(NC(=O)Nc3ccc(C(F)(F)F)cc3)cc2CC(=O)N([C@H](C)CO)C[C@@H]1C,i,i,i,i
CCCC(=O)N(CCc1c[nH]c2ccccc12)[C@@H]1CC(C(=O)NCCO)=C[C@H](Oc2c(I)cc(CO)cc2OC)[C@H]1O,+,i,i,i
C[C@H]1CN([C@@H](C)CO)C(=O)c2cccc(NS(=O)(=O)c3ccc(F)cc3)c2O[C@@H]1CN(C)Cc1ccc(C(F)(F)F)cc1,i,i,i,i
C[C@H]1CN([C@@H](C)CO)C(=O)c2cc(NC(=O)C3CC3)ccc2O[C@@H]1CN(C)S(=O)(=O)c1ccccc1,·,i,i,i
Cc1ccc(OCC(=O)Nc2ccc3oc(-c4ccccc4C)nc3c2)cc1C,i,i,i,i
Nc1ncnc2c1ncn2C1CCC(CO)O1 (configuration not stated),i,i,i,i
COc1ccc([Si](C)(C)[C@@H]2[C@@H](CCO)O[C@]3(C(=O)N(C)c4c(Br)cc(C)cc43)[C@H]2C)cc1,i,i,i,i
COc1ccc(NC(=O)NCCN2CCN(c3cc(OC)ccc3OC)CC2)cc1,i,i,i,i
Nc1nc2c(cnn2CCc2ccccc2)c2nc(-c3ccco3)nn12,i,i,i,i
CCO[C@@H]1OC(C(=O)N2CCN(Cc3ccc4c(c3)OCO4)CC2)=C[C@H](C2CC2)[C@H]1CCCO,i,i,i,i
COc1cc(C2OCC3C(c4ccc(OC5OC(CO)C(O)C(O)C5O)c(OC)c4)OCC23)ccc1O (configuration not stated),·,i,i,i
CCOC(=O)c1cnn(-c2nc(SC)nc3sc4c(c23)CCC4)c1N,i,i,i,i
O=C(NCc1ccc(F)cc1)[C@@H]1C[C@@H]2C(=O)N3CCC[C@H]3C(=O)N2[C@@H]1c1cccc(OCCO)c1,i,i,i,i
CN(C)S(=O)(=O)N1CCN(CC(=O)Nc2cc(Cl)ccc2Cl)CC1,i,i,i,i
C[C@@H]1CN([C@@H](C)CO)C(=O)Cc2cc(NC(=O)CCCCCC(=O)Nc3ccccc3N)ccc2O[C@H]1CN(C)CC1CC1,·,i,i,i
C[C@H](CO)N1C[C@H](C)[C@H](CN(C)C)Oc2ccc(NS(C)(=O)=O)cc2CC1=O,i,i,i,i
C[C@H](CO)N1C[C@H](C)[C@H](CN(C)C(=O)Nc2cccc3ccccc23)OCCCC[C@H](C)Oc2ccc(N(C)C)cc2C1=O,i,i,i,i
Nc1c(C(=O)NCc2ccccc2)c2nc3ccccc3nc2n1CCO,i,i,i,i
COc1ccc(S(=O)(=O)N(C)C[C@H]2OCc3cnnn3CCCC(=O)N([C@H](C)CO)C[C@@H]2C)cc1,·,i,i,i
C[C@H]1CCCCO[C@H](CN(C)C(=O)c2ccncc2)[C@@H](C)CN([C@@H](C)CO)C(=O)c2cc(NS(=O)(=O)c3ccccc3)ccc2O1,i,i,i,i
C[C@]1(CO)CCC[C@]2(C)C3=C(C[C@@H](O)C12)C(=O)OC3 (some centres not stated),·,i,i,i
COc1ccc(S(=O)(=O)N(C)C[C@H]2Oc3c(NC(=O)C4CCOCC4)cccc3C(=O)N([C@H](C)CO)C[C@H]2C)cc1,i,i,i,i
Cc1cc(Oc2ccccc2)nc(SCCOc2ccccc2)n1,i,i,i,i
C[C@@H]1CN([C@H](C)CO)C(=O)Cc2cc(NC(=O)Cc3cn(C)c4ccccc34)ccc2O[C@H]1CN(C)C(=O)NC1CCCCC1,i,i,i,i
COC(=O)C(C)Sc1ncnc2scc(-c3ccc(Cl)cc3)c12 (configuration not stated),i,i,i,i
COc1ccc(S(=O)(=O)N(C)C[C@@H]2Oc3c(NC(=O)c4ccc(-c5nccs5)cc4)cccc3C(=O)N([C@H](C)CO)C[C@H]2C)cc1,i,i,i,i
O=[N+]([O-])c1ccccc1S(=O)(=O)NCC1CCC(CNCC2CCc3ccccc3C2)CC1 (configuration not stated),i,i,i,i
NS(=O)(=O)c1ccc(N=Cc2c(O)[nH]c3ccccc23)cc1,·,i,i,i
# Additional structures follow:
SMILES,ID4 SMM,STAT3 SMM,Myc binder,mut p53 SMM
O=C(CC(O)(CC(=O)OCc1ccc(O[C@@H]2O[C@H](CO)[C@@H](O)[C@H](O)[C@H]2O)cc1)C(=O)OCc1ccc(O[C@@H]2O[C@H](CO)[C@@H](O)[C@H](O)[C@H]2O)cc1)OCc1ccc(O[C@@H]2O[C@H](CO)[C@@H](O)[C@H](O)[C@H]2O)cc1,i,i,i,i
C[C@@H]1CN([C@H](C)CO)C(=O)c2cc(NC(=O)Nc3ccc(F)cc3)ccc2O[C@@H]1CN(C)Cc1ccc2c(c1)OCO2,i,i,i,i
CC(=O)OC(c1nc2ccccc2c(=O)n1C1CC2(OC1=O)c1ccccc1N1C(=O)C(C)(C)N(O)C12)C(C)C (configuration not stated),i,i,i,i
O=C(NCCc1c[nH]c2ccccc12)Nc1ccc(Cl)c(Cl)c1,i,i,i,i
O=C(OC[C@@H]1[C@H]2c3ccccc3O[C@]1(CO)N=C1Sc3ccc([N+](=O)[O-])cc3C(=O)N12)c1ccccc1,i,i,i,i
CNC[C@H]1Oc2ccc(NC(=O)CCC(F)(F)F)cc2CC(=O)N([C@H](C)CO)C[C@H]1C,i,i,i,i
C[C@@H]1CCCCO[C@H](CN(C)S(=O)(=O)c2ccccc2)[C@H](C)CN([C@H](C)CO)C(=O)c2cc(NS(C)(=O)=O)ccc2O1,i,i,i,i
C[C@@H]1CCCCO[C@H](CN(C)C(=O)c2ccncc2)[C@@H](C)CN([C@H](C)CO)C(=O)c2cc(NS(=O)(=O)c3ccccc3)ccc2O1,i,i,i,i
C[C@H](CO)N1C[C@H](C)[C@H](CN(C)Cc2ccncc2)Oc2ncc(-c3ccccc3)cc2C1=O,i,i,i,i
C[C@@H]1CCCCO[C@H](CN(C)C(=O)C2CCCCC2)[C@H](C)CN([C@@H](C)CO)C(=O)c2cc(NC(=O)Nc3ccccc3)ccc2O1,i,i,i,i
COc1cc(O)c2c(c1)C1=C[C@H](O)[C@@H](O)C[C@]1(C)OC2=O,·,i,i,i
COc1ccc(S(=O)(=O)N(C)C[C@@H]2Oc3ccc(NC(=O)Cn4cnnn4)cc3C(=O)N([C@@H](C)CO)C[C@H]2C)cc1,i,i,i,i
COc1ccc(NC(=O)C2CCC(=O)N2S(=O)(=O)c2ccc(C)cc2)c(OC)c1 (configuration not stated),i,i,i,i
COc1ccc(CN(C)C[C@@H]2Oc3ccc(NC(=O)Nc4ccc(C(F)(F)F)cc4)cc3CC(=O)N([C@H](C)CO)C[C@@H]2C)cc1,i,i,i,i
CC(C)NC(=O)Nc1ccc2c(c1)C(=O)N([C@@H](C)CO)C[C@H](C)[C@H](CN(C)C(=O)CCCN(C)C)OCCCC[C@H](C)O2,i,i,i,i
CCN(CC)CC(O)Cn1c(-c2ccccc2Cl)nc2ccccc21 (configuration not stated),i,i,i,i
CCCCCCCCCC(=O)N[C@H](CN1CCOCC1)[C@H](O)c1ccccc1,i,i,i,i
C[C@@H]1CCCCO[C@@H](CN(C)C(=O)Nc2cccc3ccccc23)[C@H](C)CN([C@@H](C)CO)C(=O)c2cc(NC(=O)c3ccncc3)ccc2O1,i,i,+,i
COc1ccc(CCC(=O)c2ccc(OC)cc2O)cc1,i,i,i,i
COc1ccc(S(=O)(=O)N(C)C[C@@H]2Oc3ccc(NC(=O)Nc4cccc5ccccc45)cc3C(=O)N([C@@H](C)CO)C[C@H]2C)cc1,i,i,i,i

# From PubChem
